Assay outcomes: PubChem BioAssay, several laboratories
A1 inh = caspase 3/7 activation in MEF A1-2A-BIM cells, primary screen, A1 inhibitor project, cell-based, luminescence, HTS; caspase activation, % (test concentration not listed); AID 2462, 2010; Caspase-Glo 3/7 luminescence, 3 h; percent of clofoctol response, vehicle zero; hit rate 0.066% among 330,000;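 active means over half of replicate activation scores above 10%, or exactly half above 10 with the replicate mean above 10; inconclusive means replicate mean below 10 yet half the replicates above 10; inactive means over half of replicates below 10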;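 further: wells of about 30 µL received 50 nL stock; many hits fall short of the cut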
ALR H2O2 inh = inhibitors of human ALR sulfhydryl oxidase, primary screen, biochemical, H2O2 detection, HRP-luminol luminescence, single point. FAD-linked sulfhydryl oxidase ALR (Homo sapiens), P55789. purified ALR, DTT oxidation. inhibition, % (test concentration not listed). hit rate 3.8% among 290,000. AID 485317, 2010;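 active means mean and each replicate at 75% or more; inconclusive means only one of the two met; inactive means neither met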;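 further: stock transfer was 7.5 nL into about 7.5 µL; 0% = neutral wells and 100% = wells with inactivated enzyme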
Target sequence (P55789 whole entry, looked up): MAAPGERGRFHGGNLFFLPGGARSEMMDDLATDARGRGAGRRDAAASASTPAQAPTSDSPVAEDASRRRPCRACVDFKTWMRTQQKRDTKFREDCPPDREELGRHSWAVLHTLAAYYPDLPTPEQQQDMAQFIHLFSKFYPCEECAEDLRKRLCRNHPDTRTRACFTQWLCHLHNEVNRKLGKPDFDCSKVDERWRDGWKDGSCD
LANA-H2B inh = blockers of LANA interaction with H2A/H2B – biochemical, FP readout, HTS, primary screen. Protein LANA1 (Human herpesvirus 8 type P (isolate GK18)), Q9QR71. cell-free LANA-H2A/H2B peptide, fluorescence polarization. inhibition, % (concentration not given with the values). hit rate 0.6% among 320,000. AID 2629, 2010; in the data active means inhibition mostly above about 10%, no sharp cut-off; inactive means mostly below about 6.7%;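 further: stock transfer was 7.5 nL into about 10 µL; 0% = median of vehicle wells and 100% = median of positive control wells; one replicate is shown; the record names a cut of 25% in any replicate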
Calb FLC = C. albicans growth inhibition with fluconazole, primary screen, CaCi-2 strain, Alamar Blue fluorescence | C. albicans CaCi-2 (fluconazole-resistant clinical isolate) + fluconazole, 48 h | AID 1979, 2009 | hit rate 0.57% among 300,000 | growth inhibition, % (no concentration beside the values);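 active means most replicates above 75%; inconclusive means exactly half above 75%; inactive means most below 75%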;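 further: all wells also contain fluconazole at 8 µg/ml as a sub-toxic cotreatment; 0% = median of DMSO wells and 100% = median of geldanamycin control wells; wells of about 8 µL received 7.5 nL stock; the first replicate is given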
Beta apoptosis = inhibitors of cytokine-induced beta cell apoptosis, primary screen, luminescence | INS-1E cytokine-induced death, ATP luminescence, 48 h; percent of positive-control rescue, neutral wells zero | hit rate 0.8% among 300,000 | protection from apoptosis, % (test concentration not listed);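 active means all replicates at 75% or more, or half of them and the mean; inconclusive means half reach 75% but not the mean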;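 further: 0% = cytokine-treated negative control wells and 100% = positive control rescue; higher means more ATP so stronger rescue from cytokine killing; wells of about 40 µL received 100 nL stock; the first replicate is given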
rRNA inh HTS = reduced GFP signal of wild-type E. coli, primary screen, bacterial rRNA inhibitor project, GFP/RFP fluorescence, OD600, single point; E. coli WT GFP vs humanized-ribosome RFP mutants, 24 h; hits give low values; DMSO median 0, no signal -100; hit rate 1.6% among 350,000; GFP signal change (wild-type ribosome), % (test concentration not listed);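 active means significant combined selectivity score with lowered wild-type GFP, culture density cut under 30%, mutant RFP and density less affected; inactive means any of these conditions unmet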; further: one replicate is shown; some compounds called inactive have numbers as strong as hits
Beta2AR agonist = beta2AR agonists driving receptor internalization, primary screen, cell-based, FAP fluorogen, flow cytometry. Am2.2-beta2AR cells; reference of the scale not given here. Beta-2 adrenergic receptor (Homo sapiens), P07550. hit rate 0.43% among 340,000. response, % (concentration not given with the values);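 active means response above a set limit, near 3 SD of response in nonfluorescent compounds, cut at about 42% in these data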;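 further: stock transfer was 100 nL into about 11 µL; a reference agonist was the positive control; negative values mostly stem from fluorescent compounds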
Target sequence (P07550 whole entry, looked up): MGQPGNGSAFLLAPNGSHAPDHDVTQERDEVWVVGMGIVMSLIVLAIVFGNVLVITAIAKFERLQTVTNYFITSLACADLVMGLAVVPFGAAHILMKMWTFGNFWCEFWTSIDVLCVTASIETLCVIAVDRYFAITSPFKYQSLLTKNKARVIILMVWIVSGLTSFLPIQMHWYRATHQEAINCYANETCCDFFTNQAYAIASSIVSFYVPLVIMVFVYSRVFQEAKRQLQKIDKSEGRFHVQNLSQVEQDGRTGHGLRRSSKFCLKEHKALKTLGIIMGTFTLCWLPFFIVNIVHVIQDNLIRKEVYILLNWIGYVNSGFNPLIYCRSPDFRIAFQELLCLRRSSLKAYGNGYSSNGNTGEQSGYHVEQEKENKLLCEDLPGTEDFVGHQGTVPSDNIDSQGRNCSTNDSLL
T cruzi inh = inhibitors of intracellular T. cruzi growth, primary screen, luminescence, NIH3T3 host cells; inhibition, % (concentration not given with the values); T. cruzi beta-gal in NIH3T3, 90 h; hit rate 1.4% among 300,000;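 active means mean inhibition across valid replicates above about 55%, limit read from the data; inconclusive means mean below that limit but half or more replicates reach it; inactive means mean below it, under half of replicates reach it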;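 further: signal also drops with host cell toxicity which is not excluded here; 0% = plate median of DMSO wells and 100% = zero luminescence signal; higher percent means less beta-gal luminescence so fewer parasites; stock transfer was 50 nL into about 50 µL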
rRNA inh HTS OD600 = also measured in rRNA inh HTS; calls as there; OD600 change, %; measured here: OD600 growth;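 optical density of the mix in the first replicate; 0 = DMSO median and -100 = no signal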
rRNA inh HTS RFP = recorded beside rRNA inh HTS, whose call it bears; RFP signal change, %; measured here: RFP humanized mutant strains;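 first replicate; 0 = DMSO median and -100 = no signal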
An asterisk follows results filed as active; ? = inconclusive; . = not tested or not shown. These rows are one share of the data (hit frequency here may not be typical).

mol	A1 inh	ALR H2O2 inh	LANA-H2B inh	Calb FLC	Beta apoptosis	rRNA inh HTS	rRNA inh HTS OD600	rRNA inh HTS RFP	Beta2AR agonist	T cruzi inh
COc1ccc(C(=O)NCC(=O)NCC2(N(C)C)CCCCC2)cc1OC	0.8	-8	-0.5	-4	.	.	.	.	0	-5
COc1cccc(C(=O)Nc2cc(C(=O)NCc3ccc(C)cc3)ccc2N2CCC3(CC2)CC(c2cccc(Br)c2)=NO3)c1	0.4	0	0.2	.	3	6	-5	-6.5	-1	.
COc1ccc(C(=O)CN2C(=O)c3ccccc3S2(=O)=O)cc1Br	1.3	-7	2.1	-2	-2	1	6	-1.2	9	0
C=CCn1c(-c2ccccc2)nc2nc3ccccc3nc21	-4.2	2	-2.7	2	-1	.	.	.	-5	-4
CN(CC(=O)Nc1ccc(Cl)cc1)CC(=O)Nc1ccc(F)c(F)c1F	0.1	-5	-7.6	2	1	.	.	.	-4	-3
Cc1cccc(N2CCN(C(=O)C3CCCCC3)CC2)c1C	-0.1	4	-5.8	14	7	.	.	.	-5	9
COc1ccc2oc(=N)c(C(=O)Nc3cccc(C)c3C)cc2c1	-5.5	3	0.5	-4	-3	12	6	-0.8	13	0
COC(=O)CSc1ccc2nnc(-c3ccc(OC)c(OC)c3)n2n1	0.4	-11	-2.8	-1	.	14	12	-1.3	-6	-11
C/C(=C\COc1ccc2ccc(=O)oc2c1)CC[C@@H](O)C(C)(C)O	0.1	-3	3.0	.	-1	0	5	-4.9	0	.
c1ccc(SCc2nc3ccccc3s2)nc1	-4.5	.	2.0	-14	.	-23*	-1.4*	0.7*	16	-12
O=C(NCc1ccccc1C(F)(F)F)C1CC(c2ccccc2[N+](=O)[O-])=NO1 (stereo unspecified)	0.6	-2	2.4	1	.	-23	-35	-20	-2	10
COC(C[C@@H](O)[C@H](C)[C@@H](O)COCc1ccccc1)OC	.	.	.	-10	.	2	22	-0.8	7	-16

Four consecutive compounds out of the list so far, for reference:
mol	A1 inh	ALR H2O2 inh	LANA-H2B inh	Calb FLC	Beta apoptosis	rRNA inh HTS	rRNA inh HTS OD600	rRNA inh HTS RFP	Beta2AR agonist	T cruzi inh
COc1ccc(C(=O)NCC(=O)NCC2(N(C)C)CCCCC2)cc1OC	0.8	-8	-0.5	-4	.	.	.	.	0	-5
COc1cccc(C(=O)Nc2cc(C(=O)NCc3ccc(C)cc3)ccc2N2CCC3(CC2)CC(c2cccc(Br)c2)=NO3)c1	0.4	0	0.2	.	3	6	-5	-6.5	-1	.
COc1ccc(C(=O)CN2C(=O)c3ccccc3S2(=O)=O)cc1Br	1.3	-7	2.1	-2	-2	1	6	-1.2	9	0
C=CCn1c(-c2ccccc2)nc2nc3ccccc3nc21	-4.2	2	-2.7	2	-1	.	.	.	-5	-4

Further structures follow.
mol	A1 inh	ALR H2O2 inh	LANA-H2B inh	Calb FLC	Beta apoptosis	rRNA inh HTS	rRNA inh HTS OD600	rRNA inh HTS RFP	Beta2AR agonist	T cruzi inh
Cc1nn(CC(=O)Nc2nc3ccccc3s2)c(C)c1[N+](=O)[O-]	-0.4	-3	5.2	-12	-11	.	.	.	-3	1
S=c1[nH]nc(C2CC2c2ccc(Cl)cc2)n1-c1ccc(Cl)cc1 (stereo unspecified)	0.1	75	-2.0	7	.	-48	-66	-12	17	6
OC(COCc1ccco1)CN1CCN(c2ccccc2)CC1 (stereo unspecified)	0.4	75	1.3	-18	-1	.	.	.	2	15
CCn1c(Cc2ccccc2)nnc1SCC(=O)Nc1ccccc1F	0.3	-1	-0.2	3	-1	-7	-8	3.0	-5	4
COc1cccc(NC(=O)c2oc3ccccc3c2NC(C)=O)c1	-3.8	-5	1.3	-5	3	11	4	-5.1	-2	-33
COc1ccc(N(CC(=O)NCc2ccco2)S(C)(=O)=O)c(OC)c1	-0.1	1	-0.2	-5	-10	8	7	-6.6	-2	-6
O=C(NCCCCCNC(=O)c1ccccn1)c1ccccn1	0.0	-7	3.1	3	4	19	19	-1.5	-8	-10
O=C(CNC(=O)c1ccc(F)cc1)NCc1ccccn1	0.1	.	-1.8	.	-5	0	9	0.0	-2	.
CCOC(=O)C1CCN(CC(C)(C)NS(=O)(=O)c2ccccc2)CC1	0.4	.	0.5	0	0	1	10	-1.4	0	-3
Cc1ccc(Cn2nc(C)c(C(=O)N3CCN(S(=O)(=O)/C=C/c4ccccc4)CC3)c2C)cc1	?	-23	1.6	.	-10	.	.	.	12	.
COc1cc(OC)cc(C(=O)NC(=S)Nc2ccc3oc(=O)ccc3c2)c1	-0.5	1	3.3	2	0	4	7	-0.5	7	15
CCN(CC)CCCN=C1N[C@@H](c2ccccc2)C(C(=O)OC)=C(C)N1CC	-0.6	-12	-1.2	-6	3	23	6	0.1	-12	-32
CCN1CCN(C(=O)CN2C(=O)c3ccccc3S2(=O)=O)CC1	0.0	-5	-0.1	-5	-5	7	13	-0.7	1	-6
COc1ccnc(Oc2ccc(F)cc2)c1C(=O)N/C=N/OCc1ccccc1	1.0	-17	-1.1	-18	-1	-4	-1	-0.3	-1	13
CSc1cccc(N2CC(C(=O)N(Cc3nnc(-c4ccccc4Cl)o3)C3CC3)CC2=O)c1 (stereo unspecified)	-1.1	-17	-0.2	1	-7	-8	-19	5.3	13	21
Cc1ccc(S(=O)(=O)NC(CC(C)C)C(=O)Nc2nccs2)cc1 (stereo unspecified)	-0.4	1	2.5	19	-3	.	.	.	-6	6
CCC(=O)Nc1ccc(C(=O)NNC(=O)c2ccc(Cl)cc2)cc1	.	.	.	10	.	3	7	-2.6	-4	3
Nc1ncnc2nc(SCCc3ccccc3)[nH]c12	-0.3	-1	2.9	9	.	.	.	.	-14	-2
CCOc1cccc(C(=O)NC2=NCCS2)c1	-1.6	12	-5.0	-7	-4	3	4	-0.7	-6	0
COc1ccccc1CN1CC(C(=O)N(C)Cc2ccc(C)o2)CCC1=O (stereo unspecified)	1.1	5	-1.1	31	-1	11	18	1.9	0	-11
Cc1cccnc1Nc1nc(-c2ccccn2)cs1	-9.7	5	-6.5	-5	101*	.	.	.	13	40
O=C(Nc1cccc(S(=O)(=O)c2cccc(NC(=O)c3ccco3)c2)c1)c1ccco1	0.0	-4	-5.3	-5	15	-24	-11	11	-8	55*
Cc1ccc(S(=O)(=O)Nc2ccc(C(=O)NCc3ccncc3)cc2)cc1	-0.2	0	4.8	2	0	1	-11	-1.6	9	0
Cc1ccc(S(=O)(=O)N2CCOCC2)cc1NC(=O)C1CC(=O)N(c2ccc3c(c2)OCCO3)C1 (stereo unspecified)	-0.4	4	3.2	-2	2	-5	-1	-2.6	-2	-10
COC(=O)c1ccc(CNC(=O)N2CCN(S(=O)(=O)c3ccc(C)cc3)CC2)cc1	1.2	1	-12	-4	1	-6	-11	-0.3	0	-8
CCCC(=O)Nn1cnc2c(c1=O)C1(CCCC1)Cc1ccccc1-2	-0.1	2	3.8	-3	-2	.	.	.	-6	0
CCCc1ccc(OCCNC(=O)c2ccco2)cc1	0.8	4	6.6	0	-6	-25	-33	-7.0	-10	-17
OC1(c2ccccc2)Cc2cccc[n+]2C1c1ccccc1 (stereo unspecified)	-0.5	.	2.4	5	.	2	-3	0.8	-4	-4
COc1ccc(NC(=O)CSc2nnc(-c3ccco3)n2C)cc1	-0.7	-13	2.1	-11	3	.	.	.	-17	-5
CCCOC(=O)CSc1nc(N)c(C#N)c(-c2ccco2)c1C#N	0.9	-38	-1.4	-4	.	.	.	.	15	2
NC(=O)c1nsc(C(=O)N(c2ccccc2)C(C(=O)NC2CCCC2)c2ccncc2)c1N (stereo unspecified)	0.7	-2	-2.4	3	-2	3	5	-3.3	-1	3
COC(=O)[C@@H]1C[C@@]2(O)[C@H](O)[C@H](O)[C@H](O)C[C@H]2N1Cc1ccc(C(C)(C)C)cc1	2.0	-6	1.7	0	-11	-1	-7	19	6	-9
CCCCOc1ccc(N(CC(=O)NCC2CCCO2)C(=O)CCC(=O)Nc2cc(C)ccn2)cc1 (stereo unspecified)	-0.4	-20	-2.6	10	-7	.	.	.	-25	-19
CC(C)CCNC(=O)C1CCN(c2nnc(-n3cccc3)s2)CC1	0.6	-6	-2.1	4	-4	-5	-8	-0.2	-11	-11
O=C(CSCc1ccc(Br)cc1)N=Nc1c(O)[nH]c2ccccc12	0.2	-3	1.8	20	-6	-22	-24	-5.2	-2	-8
CSc1nnc(-c2cnccn2)n1Cc1ccccc1	1.3	-16	3.3	8	-1	.	.	.	6	-5
COc1ccc2c(c1)C1(Nc3ccccc3-c3nc4ccccc4n31)C(=O)N2C (stereo unspecified)	-0.1	3	4.5	-13	3	.	.	.	1	.
O=C(Nc1ccccc1Cl)c1ccc(Cl)cc1Cl	2.4	-5	3.3	-4	5	13	12	-0.1	-9	-3
COc1ccccc1/C=N/NC(=O)c1cc2c(ccc3ccccc32)o1	-0.6	-4	-4.8	28	2	-34	-32	11	-14	9
CCCOc1ccc(N2C(=O)CC(NCC#N)C2=O)cc1 (stereo unspecified)	-0.4	-5	-0.7	-7	-5	10	6	-5.2	-6	2
COC(=O)C1CCN(CC(N)=O)CC1	-0.2	-3	-10	3	-9	.	.	.	0	-7
Cn1c(CNc2ccc(F)cc2)nc2ccccc21	-12	85*	1.4	4	5	-13	0	1.5	-4	-5
C=C(C)c1cccc(C(C)(C)NC(=O)N2CCN(c3ccccn3)CC2)c1	-1.2	-11	2.1	-11	-6	5	-10	1.6	0	-5
CCOc1ccc(N2CC(O)=C(c3ccccc3)C2=N)cc1	0.5	9	1.4	-2	7	-8	-2	-5.2	-6	1
O=C(CCc1ccccc1)Nc1ccccc1C(=O)NCc1ccco1	-1.1	.	0.7	42	-4	.	.	.	-1	-7
CCNC(=O)CSc1nc2ccccc2c(=O)n1CCCOC(C)C	1.4	6	2.2	10	0	.	.	.	-8	-2
COc1ccc(C2=C(N)c3ccccc3C2=O)cc1	-5.7	-1	2.4	-3	4	.	.	.	-16	-4
COc1ccc(C(=O)NCC(=O)N2CCCC(C)C2)cc1OC (stereo unspecified)	-0.2	-3	0.2	3	-3	10	2	-4.6	1	-10
